eIF4H FP inh: inhibitors of RNA binding by human eIF4H. Q15056. eIF4H fluorescence polarization binding assay. inhibition, % at 35 µM. 0.94% of 290,000 active. AID 2012;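 active means 50% or more with normal probe brightness, or confirmed in later tests; inconclusive means above 50% with abnormal brightness, or retests that disagree; inactive means below 50% or failed in later tests; about a fifth of its hits are not listed in these tables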;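 further: calls also rest on retests at 20 µM and on dose response follow-up; 0% = protein and probe with vehicle and 100% = probe without protein; strong numbers were not always called active; many hits fall short of the cut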
MT1-MMP act inh: MT1-MMP (human) activation inhibition; 0.061% of 360,000 active; AID 651647; P50281; GFP/RFP ratio change, % at 20 µM; HT1080 RFP-PRO-GFP cells, GFP/RFP ratio fluorescence, overnight; percent of plate control window, DMSO zero;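 active means GFP/RFP ratio change of at least 30% with cell ATP level not reduced by more than half and red fluorescence within 50% of control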; further: strong numbers were not always called active
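Assay system: HT1080 cells carrying an RFP-PRO-GFP reporter | Dosing: Single dose of 20 µM compound, 1% DMSO final | Incubation: Cells overnight before dosing, compound overnight, 37 °C, 5% CO2 | Evaluation: GFP/RFP fluorescence ratio | Control set: DMSO and RFP-L50D-GFP cell wells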
Rce1 inhib: blocks yeast Ras-converting enzyme; AID 2563; 0.27% of 290,000 active; calls only; Q03530; yeast membranes, quenched prenylated peptide cleavage fluorescence;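 active means fall in fluorescence gain of 50% or more versus controls, with final raw signal at or below 3038400; inconclusive means same 50% fall but final raw signal above 3038400; inactive means fall in fluorescence gain under 50%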;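 further: plate controls were neutral control wells for no effect and wells lacking membranes for full effect; tested at 10 µM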
Yeast UUG start: yeast start codon fidelity modulation | 0.13% of 350,000 active | S. cerevisiae UUG-firefly luciferase reporter, luminescence/redox ratio | activity score, % at 18.7 µM;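 active means replicate mean at a twofold rise or more, about +100% in these data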;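 further: firefly luciferase made from a UUG start codon reports start codon fidelity; reporter light over untreated wells divided by growth signal over untreated wells; some hits fall short of that in this replicate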
HIV Env fusion: inhibitors of HIV Env-mediated cell fusion; HeLa-JRFL Env/CEM21 cell fusion, luciferase; inhibition, % at 12.3 µM; 1.1% of 360,000 active; AID 651610;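 active means mean replicate inhibition score of at least 50 and every replicate individually at or above 50; inconclusive means only one of the two criteria met; inactive means mean below 50 and not all replicates reaching 50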;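 further: 0% = plate neutral controls and 100% = maraviroc near 300 nM; one replicate is shown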
PABP polyA inh: blocks human PABP binding to poly(A) RNA; P11940; fluorescence polarization; inhibition, % at 35 µM; 1% of 290,000 active; AID 2014;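 active means 50% or more with normal probe brightness, or confirmed in later tests; inconclusive means above 50% with abnormal brightness, or retests that disagree; inactive means below 50% or failed in later tests; about a fifth of its hits are not listed in these tables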;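 further: calls also rest on retests at 20 µM and on dose response follow-up; controls were probe without protein and protein plus probe with vehicle; some compounds called inactive have numbers as strong as hits; many hits fall short of the cut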
Target sequence (P11940 whole entry, looked up): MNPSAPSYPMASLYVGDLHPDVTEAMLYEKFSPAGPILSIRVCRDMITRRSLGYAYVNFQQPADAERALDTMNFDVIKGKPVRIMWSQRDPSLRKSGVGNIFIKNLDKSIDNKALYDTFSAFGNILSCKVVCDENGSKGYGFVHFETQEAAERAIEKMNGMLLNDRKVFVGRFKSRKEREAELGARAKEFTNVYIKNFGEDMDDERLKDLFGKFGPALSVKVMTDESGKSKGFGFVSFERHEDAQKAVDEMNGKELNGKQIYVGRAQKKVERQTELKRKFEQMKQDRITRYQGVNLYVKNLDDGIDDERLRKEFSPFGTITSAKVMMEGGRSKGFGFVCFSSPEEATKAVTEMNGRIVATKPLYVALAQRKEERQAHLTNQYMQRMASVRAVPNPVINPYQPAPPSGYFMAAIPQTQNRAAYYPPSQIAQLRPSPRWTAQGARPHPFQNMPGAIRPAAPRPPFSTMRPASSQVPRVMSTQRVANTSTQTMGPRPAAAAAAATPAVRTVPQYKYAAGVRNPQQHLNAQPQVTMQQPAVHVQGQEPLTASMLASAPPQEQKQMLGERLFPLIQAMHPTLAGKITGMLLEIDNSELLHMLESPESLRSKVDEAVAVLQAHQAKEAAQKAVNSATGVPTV
CSC inhib: blocks cancer stem cells | cancer stem cell-like cells viability, luminescence | inhibition, % at 7.5 µM | 1.1% of 300,000 active | AID 2717;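 active means mean at 75% or more and at least half the replicates too; inconclusive means mean and replicates disagree; tested in HMLE shEcad cells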;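 further: 0% = median of negative and 100% = median of positive control wells; the first replicate is given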
MT1-MMP act inh RFP: second read-out of MT1-MMP act inh, no call of its own (marks repeat the call); RFP signal change, %; measured here: RFP expression control read;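 0 = vehicle wells; hits needed this value within 50% of zero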
Starred values were filed as active, the others as inactive; i = inactive; ? = inconclusive; · = not tested or not shown.

Order of results: eIF4H FP inh	MT1-MMP act inh	MT1-MMP act inh RFP	Rce1 inhib	Yeast UUG start	HIV Env fusion	PABP polyA inh	CSC inhib
OC(c1nc2ccccc2[nH]1)C(O)c1nc2ccccc2[nH]1 (stereo not drawn)
 : 4	1	7	i	-15	-10	5	0
O=C1OC(Cc2ccccc2)C(c2ccccc2)C1=O (stereo not drawn)
 : ·	4	1	·	-19	1	·	·
CC(C)CNC(=O)COc1ccc(Sc2ccc(OCC(=O)NCC(C)C)cc2)cc1
 : 2	-5	-19	i	-10	23	6	-5
CC1(c2ccccc2)CC(C)(C)N2C(=O)Cc3cccc1c32 (stereo not drawn)
 : -12	1	-1	i	-13	-9	-4	-9
CCOC(=O)[C@H]1[C@H]2COc3ccc(Br)cc3[C@@H]2N2C(=O)CN(Cc3ccc(C)cc3)C(=O)[C@@]12C
 : ·	-3	-4	·	-21	12	·	-4
CCOc1ccc(CCNC(=O)C2CCN(c3nn4c(=O)cc(C)nc4s3)CC2)cc1OCC
 : -3	18	5	i	-10	·	-15	-10
c1ccc2c(-n3cnnn3)cccc2c1
 : 1	3	5	i	19	-35	0	-6
Cc1ncc(CO)c(CNc2ccc(-c3nc4ccccc4[nH]3)cc2)c1O
 : 48	-2	-4	i	-38	-31	23	-6
Cc1cccc(OCC(=O)Oc2ccc(Cl)cc2)c1
 : ·	0	2	i	·	-6	·	2
O=C1CC2c3ccccc3C1C1C(=O)N(Cc3ccccc3)C(=O)C21 (stereo not drawn)
 : 0	4	4	·	·	14	-2	3
Cc1ccc(C(=O)Nc2c[nH]c(=O)[nH]c2=O)cc1
 : -4	-1	1	i	7	?	-2	2
O=C(O)c1cc(O)c2c(c1)[C@H]([C@H]1c3cc(C(=O)O)cc(O)c3C(=O)c3c(O[C@@H]4O[C@H](CO)[C@@H](O)[C@H](O)[C@H]4O)cccc31)c1cccc(OC3O[C@H](CO)[C@@H](O)[C@H](O)[C@H]3O)c1C2=O (stereo partly drawn)
 : ·	9	-11	i	-15	22	·	17
COc1ccc(NC(=O)c2cc(-c3cccs3)on2)cc1OC
 : 37	6	0	i	·	-14	-7	-6
Cc1ccc(C(=O)C(C)OC(=O)c2cc(=O)[nH]c3ccccc23)cc1 (stereo not drawn)
 : ·	-2	1	i	-3	-1	·	0
COc1cc(OC)c(C(=O)Nc2ccc(C(=O)c3ccccc3)cc2)cc1OC
 : -2	2	-2	i	-5	7	3	13
C=CCNC(=O)c1cccn1-c1ccsc1C(=O)OC
 : 0	-2	3	i	-8	·	7	-5
Cc1cccc(N(C(=O)CCC(=O)Nc2cc(C)on2)C(C(=O)NC2CCCC2)c2ccccc2)c1 (stereo not drawn)
 : 2	-4	-1	i	5	4	12	·
CC[C@@H](CCC=C(C)C)C(=O)N(Cc1ccccc1)c1ccccc1
 : ·	-2	-5	·	11	16	·	22
COc1ccc(CC(=O)NCc2nnc(SCCOc3ccccc3)n2C)cc1
 : -8	6	0	i	11	·	-3	-3
COC(=O)N/N=C(\C)c1ccc(-n2ccnc2)cc1
 : -2	0	1	i	·	3	-2	-10
Cc1ccc(S(=O)(=O)N(Cc2ccccc2)c2ccccn2)cc1[N+](=O)[O-]
 : 1	-7	-8	i	0	1	1	9
S=c1[nH]nc(C2CCCCC2)n1/N=C/C=C/c1ccccc1
 : -8	-5	0	i	-12	-8	-6	-2
CCn1c(COc2ccc3c(c2)OCO3)nnc1SCC(=O)c1ccccc1
 : -2	-1	2	i	-19	·	-5	·
COc1ccc(Cn2c(=O)[nH]c3cc(C(=O)NCCCN4CCCCC4)ccc3c2=O)cc1
 : -12	2	4	·	-25	-18	-2	-6
O=C(Nc1ccccc1)c1cc2ccccc2o1
 : 0	-3	-4	i	-41	-372	3	-4
COCCNC(=S)c1ccc(Br)cc1
 : 7	-1	0	i	-24	7	-5	-17
Cc1cc(CSc2ccccc2)ccc1NC(=O)c1ccc(CN2CCOCC2)cc1
 : 3	-5	-25	i	·	68*	5	34
Cc1cc(C(=O)N/N=C/c2cc(Br)cc(Br)c2OC(=O)c2cccc(F)c2)n[nH]1
 : -19	-14	-7	i	·	13	-7	?
CCOC(=O)c1ccc(NC(=S)NCCC2=CCCCC2)cc1
 : -2	4	-3	i	-19	42	-7	13
O=[N+]([O-])c1cccnc1N1CCN(c2ccc(F)cc2)CC1
 : 38	3	3	i	·	13	2	8

Full records as entered above. Order of screens: eIF4H FP inh, MT1-MMP act inh, MT1-MMP act inh RFP, Rce1 inhib, Yeast UUG start, HIV Env fusion, PABP polyA inh, CSC inhib
Results for `CCOC(=O)c1ccc(NC(=S)NCCC2=CCCCC2)cc1` → -2, 4, -3, i, -19, 42, -7, 13
Results for `O=C(O)c1cc(O)c2c(c1)[C@H]([C@H]1c3cc(C(=O)O)cc(O)c3C(=O)c3c(O[C@@H]4O[C@H](CO)[C@@H](O)[C@H](O)[C@H]4O)cccc31)c1cccc(OC3O[C@H](CO)[C@@H](O)[C@H](O)[C@H]3O)c1C2=O` (stereo partly drawn) → ·, 9, -11, i, -15, 22, ·, 17
Results for `O=C1CC2c3ccccc3C1C1C(=O)N(Cc3ccccc3)C(=O)C21` (stereo not drawn) → 0, 4, 4, ·, ·, 14, -2, 3

New compounds follow.
Order of results: eIF4H FP inh	MT1-MMP act inh	MT1-MMP act inh RFP	Rce1 inhib	Yeast UUG start	HIV Env fusion	PABP polyA inh	CSC inhib
Cc1c(NC(=O)c2ccc(S(=O)(=O)N3CC(C)OC(C)C3)cc2)c(=O)n(-c2ccccc2)n1C (stereo not drawn)
 : -3	-5	3	i	·	4	3	·
Cc1ccc(S(=O)(=O)Nc2ccc3oc(=O)sc3c2)c(C)c1
 : 8	1	-6	i	·	·	-1	33
CCCNC(=O)C1(C)CCCN(Cc2ccc(C(F)(F)F)cc2)C1 (stereo not drawn)
 : ·	2	3	·	-22	18	·	·
COc1ccc(C(=O)NC(=S)Nc2ccc3[nH]c(=O)[nH]c3c2)cc1
 : -8	1	0	i	-36	0	-12	·
Cc1ccc(NC(=O)CN2CCCN(S(=O)(=O)c3ccc(Br)s3)CC2)cc1
 : -2	4	-8	i	19	·	2	32
O=C(O)C1CCCCC1C(=O)Nc1cccc(C(=O)N2CCCCC2)c1 (stereo not drawn)
 : -11	-3	-2	i	-5	·	1	8
Cc1ccn2c(=O)nc(SCC(=O)Nc3cc(C)on3)nc2c1
 : ·	4	4	i	-10	-19	·	7
Cc1ccc(NC(=S)Nc2c(C)n(C)n(-c3ccccc3)c2=O)cc1Cl
 : -2	-2	0	i	·	4	-16	-10
COC(=O)c1ccc(C2C(C#N)=C(N)Oc3cc(O)ccc32)cc1 (stereo not drawn)
 : -1	-24	0	i	-15	-4	-2	-2
CCc1nnc(NC(=O)CSc2nccn2-c2cc(C)cc(C)c2)s1
 : -16	-5	-4	i	-5	9	0	11
COc1ccc(C(=O)N2CC3(C)C4CCC3(C)C2(C#N)C4)cc1OC (stereo not drawn)
 : 2	4	-1	i	·	11	2	-11
CS(=O)(=O)N(Cc1ccc(Cl)cc1)c1ccc(C(=O)NCCSCc2ccco2)cc1
 : 0	-4	-5	i	-9	-43	14	13
Cc1nn(C)c(C(=O)N2CCc3ccccc32)c1Br
 : 0	2	-1	i	-31	-3	17	1
Cc1cccc(NC(=O)CN2CCCCCC2)c1
 : -2	-3	2	i	-15	-2	10	-1
CC(=O)c1c(C(C)=O)c(C)n(-c2ccc(O)cc2)c1C
 : 1	-5	-1	·	-8	·	-1	10
O=C(Nc1ccccc1O)c1ccc(NS(=O)(=O)c2cccc3cccnc23)cc1
 : 2	18	13	i	-4	-144	2	?
CC(=O)Nc1ccc(S(=O)(=O)NCCC(=O)OCC(=O)N2CCN(C(=O)c3ccco3)CC2)cc1
 : 42	3	7	i	-12	-369	25	-10
Cc1ccc(C(=O)OC2=CC(=O)CC(C)(C)C2)cc1
 : -8	0	2	i	1	·	10	6
CNc1nc(Nc2ccc(C)c(Cl)c2)nc(N)c1[N+](=O)[O-]
 : 4	0	-9	i	·	18	0	17
O=C(NCCCN1CCCCC1)c1ccc2c(c1)ncn2C1CCCC1
 : 8	-1	4	i	·	-9	-10	-15
CCCCC(=O)NCc1ccc(Cl)cc1
 : -4	2	4	i	-18	10	11	-4
CN(CC(=O)Nc1ccc(Cl)cc1)C(=O)CNC(=O)Cc1cccc2ccccc12
 : ·	7	0	·	3	·	·	26
CCOC(=O)c1c(-c2ccc(C)o2)csc1NC(=O)COC(=O)c1cccs1
 : 9	5	3	i	-15	-11	-3	·
O=C(NC1CCCc2ccccc21)c1ccc(F)cc1F (stereo not drawn)
 : -2	-1	-1	i	-1	5	4	-9
CN(CC(=O)Nc1ccc(C#N)cc1)Cc1ccc(Cl)c(Cl)c1
 : -8	0	3	i	-5	-71	2	-5
O=C(Nc1ccc(N2CCOCC2)cc1)c1cccc2ccccc12
 : -13	-1	-4	·	2	10	0	18
COn1c(C)c(C(C)=O)c2c3no[n+]([O-])c3ccc21
 : -18	-5	-4	i	-9	·	0	-5
COc1ccc2[nH]c(=O)c(NC(N)=S)nc2c1
 : 9	1	-1	i	-8	·	10	5
COc1ccc(NC(=O)C(=S)N2CCCC2)cc1
 : 2	-1	-3	i	-14	-12	22	·
O=C(c1cccs1)N1C[C@@H](n2cc(C3CC3)nn2)[C@H](O)C[C@@H]1c1ccccc1
 : ·	0	4	·	6	-20	·	·
COc1ccc(/C=N/NC(=O)c2cc(C)oc2C)cc1OCc1ccccc1
 : -6	5	-10	·	-9	20	-6	7
COc1ccc(N2CCN(C(=O)c3[nH]c(C(F)(F)F)nc3-c3ccccc3)CC2)cc1
 : ·	8	-1	·	-14	-15	·	·
CC(C)(C)C(=O)N=C1SC2CS(=O)(=O)CC2N1c1ccc2c(c1)OCO2 (stereo not drawn)
 : -10	3	2	i	6	-34	-2	-7
COC(=O)Cn1cnc2c(C#N)c3n(c2c1=O)CCCC3
 : -2	-1	2	i	-14	-62	-6	8
O=C(NCc1ccccc1)C1CC(=O)N(C2CCCCCC2)C1 (stereo not drawn)
 : -5	8	7	i	-8	6	5	·
Cc1nnc(SCC(=O)N2CCc3ccccc32)n1-c1ccccc1
 : 9	1	2	i	-28	-10	12	-16
C/C(=N\NC(=O)c1ccc(CSc2nc(C)cc(C)n2)cc1)C1CCCCC1
 : 0	4	1	i	·	·	1	9
O=C(c1ccc(F)cc1)N1CCC(n2nnc3ccccc32)CC1
 : 8	-5	2	·	·	22	8	-11
O=C(COC(=O)COc1cccc(F)c1)NCCC1=CCCCC1
 : -8	3	6	·	·	0	-9	0
CCn1c(SCC(=O)N2CCCCC2)nc2c(c1=O)SCC2
 : -10	-1	0	i	9	-6	3	10
CC1CC(C)CN(C(=O)CSc2nc(Cc3cccs3)nc3ccccc23)C1 (stereo not drawn)
 : 4	-8	7	i	-5	16	-4	30
C=CCOc1ccc(/C(O)=C2\C(=O)C(=O)N(CCCOC)C2c2ccncc2)cc1 (stereo not drawn)
 : -6	-4	-3	i	-7	·	34	-6
CCCOC(=O)c1ccc(NC(=O)C(=O)NCC2CCCO2)cc1 (stereo not drawn)
 : -5	6	-1	i	0	5	6	-7
CSc1nnc(-c2cc(C)on2)n1-c1ccccc1
 : 5	-3	1	i	4	-55	11	3
Cn1c(SCC(=O)Nc2ccccc2Oc2ccccc2)nnc1C1CC1
 : ·	-2	3	·	-12	2	·	·
COCCCN1C(=O)c2ccccc2C1C(=O)NC1CCCCCC1 (stereo not drawn)
 : -11	5	5	i	-8	·	-9	·
O=C(CCc1n[nH]c(=O)[nH]c1=O)Nc1cccc([N+](=O)[O-])c1
 : -1	7	2	i	·	10	-1	-4
C[C@@]12C(=O)N(c3ccc(C(F)(F)F)cc3)C(=O)N1[C@@H]1c3ccccc3OC[C@@H]1[C@H]2c1ccccc1
 : -4	-5	-6	i	-13	·	-6	·

Source: PubChem BioAssay (several laboratories)

An excerpt, so the mix of outcomes need not match the whole.
